# Screening data deposited in PubChem by several laboratories.
# Env fusion inh – inhibitors of HIV-1 Env-driven cell-cell fusion, primary screen, HeLa-JRFL effector, CEM21 target cells, luciferase | AID 651610, 2012 | 1.1% of 360,000 active | inhibition, % at 12.3 µM;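 active = mean replicate inhibition score of at least 50 and every replicate individually at or above 50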;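 also: 0% = plate neutral controls and 100% = maraviroc near 300 nM; one replicate is shown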
# Rce1 inh – yeast Rce1p protease inhibitors, primary screen, biochemical, fluorescence, cell-free homogeneous | CAAX prenyl protease 2 (Saccharomyces cerevisiae (strain ATCC 204508 / S288c)), Q03530 | 0.27% of 290,000 active | calls only | yeast membranes, quenched prenylated peptide cleavage fluorescence;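 active = fall in fluorescence gain of 50% or more versus controls, with final raw signal at or below 3038400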;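 also: plate controls were neutral control wells for no effect and wells lacking membranes for full effect; tested at 10 µM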
# Target sequence (Q03530 whole entry, looked up): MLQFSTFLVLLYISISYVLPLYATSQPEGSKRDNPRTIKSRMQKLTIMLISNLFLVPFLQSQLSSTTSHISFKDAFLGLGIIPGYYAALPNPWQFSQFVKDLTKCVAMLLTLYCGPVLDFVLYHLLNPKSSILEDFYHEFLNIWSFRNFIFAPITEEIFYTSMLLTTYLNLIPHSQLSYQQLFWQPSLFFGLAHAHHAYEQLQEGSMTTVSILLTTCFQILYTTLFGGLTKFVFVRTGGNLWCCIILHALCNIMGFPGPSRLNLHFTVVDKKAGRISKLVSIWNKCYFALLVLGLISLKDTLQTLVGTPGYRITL
# UUG fidelity – modulators of yeast start codon fidelity, primary screen, whole organism, S. cerevisiae, single point, plate reader; S. cerevisiae UUG-firefly luciferase reporter, luminescence/redox ratio; activity score, % at 18.7 µM; 0.13% of 350,000 active; AID 602363, 2012;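 active = replicate mean at a twofold rise or more, about +100% in these data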;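 also: firefly luciferase made from a UUG start codon reports start codon fidelity; reporter light over untreated wells divided by growth signal over untreated wells; some hits fall short of that in this replicate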
# MT1-MMP act inh – blockers of MT1-MMP proenzyme processing, primary screen, HT1080 RFP-PRO-GFP cells, GFP/RFP fluorescence; AID 651647, 2012; Matrix metalloproteinase-14 (Homo sapiens), P50281; 0.061% of 360,000 active; GFP/RFP ratio change, % at 20 µM; GFP/RFP ratio fluorescence, overnight; percent of plate control window, DMSO zero;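 active = GFP/RFP ratio change of at least 30% with cell ATP level not reduced by more than half and red fluorescence within 50% of control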; also: strong numbers were not always called active
#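 Assay system: HT1080 RFP-PRO-GFP cells. Benchmarks: DMSO vehicle wells and RFP-L50D-GFP reporter cell wells. Times: overnight cell settling, then overnight compound exposure, 37 °C, 5% CO2. Compound: 20 µM single dose, 1% DMSO. Read-out basis: GFP/RFP fluorescence ratio.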
# PABP polyA inh – PABP poly(A) RNA binding inhibitors, primary screen, biochemical, fluorescence polarization, uHTS. Polyadenylate-binding protein 1 (Homo sapiens), P11940. inhibition, % at 35 µM. 1% of 290,000 active. AID 2014, 2009;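 active = 50% or more with normal probe brightness, or confirmed in later tests; about a fifth of its hits are not listed in these tables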;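 also: calls also rest on retests at 20 µM and on dose response follow-up; controls were probe without protein and protein plus probe with vehicle; some compounds called inactive have numbers as strong as hits; many hits fall short of the cut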
# Target sequence (P11940 whole entry, looked up): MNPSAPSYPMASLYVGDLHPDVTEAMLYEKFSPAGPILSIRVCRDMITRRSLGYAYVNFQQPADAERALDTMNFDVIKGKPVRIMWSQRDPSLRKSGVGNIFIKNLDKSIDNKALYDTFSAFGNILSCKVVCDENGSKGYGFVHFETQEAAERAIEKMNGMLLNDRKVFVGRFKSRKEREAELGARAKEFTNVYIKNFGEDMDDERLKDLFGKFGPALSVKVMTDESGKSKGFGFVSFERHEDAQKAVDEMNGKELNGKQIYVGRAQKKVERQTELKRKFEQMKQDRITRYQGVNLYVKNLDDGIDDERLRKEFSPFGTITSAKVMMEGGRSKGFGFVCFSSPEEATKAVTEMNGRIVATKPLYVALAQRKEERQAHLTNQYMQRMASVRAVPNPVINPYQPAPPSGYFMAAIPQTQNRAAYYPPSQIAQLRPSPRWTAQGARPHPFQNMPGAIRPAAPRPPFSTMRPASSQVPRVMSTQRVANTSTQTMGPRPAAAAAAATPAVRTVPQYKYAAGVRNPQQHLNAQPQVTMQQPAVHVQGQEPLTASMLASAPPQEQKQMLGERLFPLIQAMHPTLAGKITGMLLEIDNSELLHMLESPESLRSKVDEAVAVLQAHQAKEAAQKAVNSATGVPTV
# eIF4H inh – human eIF4H binding inhibitors, primary screen, translation initiation inhibitor project, biochemical, uHTS, fluorescence polarization; Eukaryotic translation initiation factor 4H (Homo sapiens), Q15056; eIF4H fluorescence polarization binding assay; inhibition, % at 35 µM; 0.94% of 290,000 active;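 active = 50% or more with normal probe brightness, or confirmed in later tests; about a fifth of its hits are not listed in these tables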;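 also: calls also rest on retests at 20 µM and on dose response follow-up; 0% = protein and probe with vehicle and 100% = probe without protein; strong numbers were not always called active; many hits fall short of the cut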
# CSC inhib – cancer stem cell viability inhibitors, primary screen, luminescence; cancer stem cell-like cells viability; inhibition, % at 7.5 µM; 1.1% of 300,000 active;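 active = mean at 75% or more and at least half the replicates too; tested in HMLE shEcad cells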;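 also: 0% = median of negative and 100% = median of positive control wells; the first replicate is given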
# eIF4H inh retest – second read-out of eIF4H inh, no call of its own (marks repeat the call); inhibition, %; compound at 20 µM; confirmation average;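 mean of two retest wells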
# PABP polyA inh retest – further read-out of PABP polyA inh, marked with its call; inhibition, %; compound at 20 µM; confirmation repeats;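 mean of two retest wells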
# MT1-MMP act inh RFP – second read-out of MT1-MMP act inh, no call of its own (marks repeat the call); RFP signal change, %; measured here: RFP expression control read;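 0 = vehicle wells; hits needed this value within 50% of zero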
# Numbers without * were called inactive; i = inactive; nt = not tested or not shown. These rows are one share of the data; the hit share may differ from the screen's.
SMILES,Env fusion inh,Rce1 inh,UUG fidelity,MT1-MMP act inh,MT1-MMP act inh RFP,PABP polyA inh,eIF4H inh,CSC inhib,others
COc1ccc(CN2CC(C(=O)NCCc3ccc(Cl)cc3)CC2=O)cc1 (centres undefined),-2,i,nt,1,2,-10,-12,2,
Cc1cc(C(=O)COC(=O)c2ccc(O)cc2O)c(C)n1-c1ccccc1,-151,nt,-25,-9,-22,nt,nt,37,
Cc1cc(C)c[n+](CC(=O)c2cc3ccccc3oc2=O)c1,nt,i,-11,7,9,1,-8,nt,
Cn1nc(C(=O)Nc2cccc(C(F)(F)F)c2)ccc1=O,-86,nt,17,-1,-2,-2,-2,-9,
CC1(CCc2ccccc2)NC(=O)N(CC(=O)Nc2ccc(OC(F)F)cc2)C1=O (centres undefined),3,nt,-2,2,1,nt,nt,-9,
CC(=O)c1cc(F)c(N2CCN(CCC#N)CC2)cc1C,nt,i,-7,1,3,0,-1,-4,
CC(NC(=O)/C(=C\c1ccco1)NC(=O)c1ccco1)C(=O)O (centres undefined),-3,i,-8,-2,4,17,20,-5,
COc1cc(CNCCN2CCOCC2)ccc1OCc1ccccc1Cl,nt,i,nt,3,6,11,0,62,
O=C(O)C(C(O)c1ccc([N+](=O)[O-])cc1)[n+]1ccccc1 (centres undefined),-10,i,-9,0,1,nt,nt,-4,
CCOc1ccc(/C=C/C(=O)c2c(O)c3ccccc3oc2=O)cc1,nt,i,nt,0,1,1,5,nt,
CC1CN(C(=O)c2cccn(Cc3c(Cl)cccc3Cl)c2=O)CC(C)O1 (centres undefined),3,i,nt,-6,5,1,-5,-5,
CCC(c1nnnn1Cc1ccccc1)N1CCN(c2ccccc2)CC1 (centres undefined),-5,i,nt,2,4,9,5,1,
CC1CCCCN1C(=O)c1cnn2c(C(F)(F)F)cc(-c3ccco3)nc12 (centres undefined),nt,i,-4,-1,-1,2,-6,-6,
COCCn1c(SCC(=O)Nc2ccc(S(=O)(=O)N(C)C)cc2)nc2ccccc21,nt,i,-6,0,-3,11,5,-3,
NC(=O)c1csc(-c2ccncc2)n1,i,i,-5,-5,0,-3,-2,-19,
CC(=O)COc1cc2c(-c3cc4ccccc4o3)cc(=O)oc2cc1C,-4,i,-8,-1,-8,3,3,8,
Cc1cc(C)cc(-n2ncc3c2CCCC3NC(=O)c2ccccc2N2CCOCC2)c1 (centres undefined),26,i,1,-7,-10,-13,2,29,
COc1ccc(S(=O)(=O)N2CCOC23CCN(C(=O)c2c(F)cccc2Cl)CC3)cc1,-9,i,-2,-2,2,nt,nt,-24,
COc1ccc(C(=O)N2CCC(C(=O)N3CCN(c4ccc(OC)cc4)CC3)CC2)cc1,-8,nt,10,3,2,-11,-5,1,
CC(C)CC(CC(C)C)=NNC(=O)c1ccc(CSc2nncn2C)cc1,9,i,-6,2,2,5,1,-3,
O=C1CCC(C(=O)N2CCSCC2)CN1Cc1cccc(C(F)(F)F)c1 (centres undefined),14,i,-8,0,0,51,-5,-4,eIF4H inh retest=-4;PABP polyA inh retest=6
CCN1CCN(c2cc(C)c3cc(NC(=S)N4CC(C)CC(C)C4)ccc3n2)CC1 (centres undefined),4,i,-28,2,-1,3,-4,nt,
COc1ccc(N2CCN(C(=O)CCCn3c(=O)c4cccn4c4cccnc43)CC2)cc1,13,i,-8,0,0,-3,1,-7,
CCOC(=O)C1=C(NC(=S)NC(=O)c2ccccc2)c2ccccc2CC1(C)CC (centres undefined),16,i,-25,-13,-16,1,-6,-5,
CCCn1nc(NS(=O)(=O)c2ccccc2[N+](=O)[O-])c2cc3ccccc3nc21,-30,i,-6,-1,6,7,2,-13,
CC(=O)c1cccc(S(=O)(=O)NC2CC2)c1,-8,i,-22,2,2,3,0,0,
O=C(COc1ccc(Cl)cc1Br)N1CCN(c2ncccn2)CC1,-4,nt,-10,5,-2,nt,nt,nt,
CC(=O)N(C1=C(Cl)C(=O)c2ccccc2C1=O)C1CCCCC1,22,i,-46,-181,-13,13,-3,57,
COC(=O)[C@@]1(Cc2ccccc2)[C@H]2c3cc(C(=O)N4CCCC4)n(Cc4ccsc4Br)c3C[C@H]2CN1C(=O)c1ccccc1,-7,nt,nt,nt,nt,-2,2,16,
Cc1nc(NC(=O)/C=C/c2ccccc2)sc1C(=O)N(C)C,12,i,-11,3,2,-3,1,-17,
C[C@H]1CN=C(N(C)C)N1CCCCc1ccccc1,0,nt,-10,5,-1,nt,nt,3,
CC(C)[C@H](NC(=O)c1nn(Cc2ccccc2)c(=O)c2ccccc12)C(=O)O,0,i,-23,-1,-4,7,4,-14,
Cn1c(=O)c2c(nc(CN3CCC(C(N)=O)CC3)n2CCCc2ccccc2)n(C)c1=O,-72,i,-1,2,0,32,-4,-15,
Cc1ccccc1C(=O)N1CCN(c2ccc(NC(=O)c3cccs3)cc2)CC1,26,i,0,-1,-2,2,-3,-7,
C/C(=N\NC(=O)c1c(C)nc2ccccn12)c1ccco1,-140,i,nt,-1,6,7,-17,nt,
O=C(c1cnc(-c2ccc(Cl)cc2)s1)c1ccc(Cl)cc1Cl,nt,i,-12,-3,-1,-7,1,20,
C=CCc1c(C)[nH]c(=O)[nH]c1=O,-1,i,-17,-1,3,9,-11,-5,
O=C(c1cccc(NS(=O)(=O)c2cccc(C(F)(F)F)c2)c1)N1CCOCC1,0,i,-12,-10,-1,-5,16,-4,
Cc1ccc(S(=O)(=O)N(C)CC(=O)Nc2ccccc2)cc1,-16,i,-22,-5,-2,10,-7,1,
CC/C(=N\NC(=O)c1cccnc1)c1ccc2c(c1)OCCO2,1,i,-18,3,6,3,-8,-5,

# A portion from the list above, for reference:
SMILES,Env fusion inh,Rce1 inh,UUG fidelity,MT1-MMP act inh,MT1-MMP act inh RFP,PABP polyA inh,eIF4H inh,CSC inhib,others
Cc1ccccc1C(=O)N1CCN(c2ccc(NC(=O)c3cccs3)cc2)CC1,26,i,0,-1,-2,2,-3,-7,
C/C(=N\NC(=O)c1c(C)nc2ccccn12)c1ccco1,-140,i,nt,-1,6,7,-17,nt,

# Remaining list, next part.
SMILES,Env fusion inh,Rce1 inh,UUG fidelity,MT1-MMP act inh,MT1-MMP act inh RFP,PABP polyA inh,eIF4H inh,CSC inhib,others
CCn1cc(/C=C(\NC(=O)c2ccc(OC)c(OC)c2)C(=O)NCCCN2CCOCC2)c2ccccc21,-5,i,1,2,2,-7,-6,nt,
C[C@]12C=CC(=O)C=C1CCC1C3CC[C@](O)(C(=O)CO)[C@@]3(C)CC3OC312 (some centres undefined),-4,i,-8,2,6,-5,-9,-9,
CCCc1cc(C(=O)Nc2cc(Cl)ccc2O)no1,2,i,-19,-5,4,-12,8,31,
CC(C)CCNC(=O)C(c1ccco1)N(CC1CCCO1)C(=O)Cn1nnc2ccccc21 (centres undefined),nt,i,2,3,1,11,9,5,
CCSc1nnc(NC(=O)CSc2nc3c(cc2C#N)CCCC3)s1,-58,i,-2,1,0,-3,-6,4,
Cc1cc(N2CCN(c3ccccc3)CC2)nc(-c2ccccc2)n1,-67,i,-5,-2,0,-7,6,22,
COc1cccc(NC(=O)N2CCCC2C(=O)NCC(C)C)c1 (centres undefined),-20,i,-9,4,3,-1,1,8,
O=C(Cn1c(=O)oc2ccccc21)Nc1cccc(Cl)c1,5,nt,-10,9,-6,-3,11,-8,
CSc1nsc(SCC(=O)Nc2ccc(OC(C)=O)cc2)n1,-32,i,-14,-4,2,-3,1,2,
C[C@H](OC(=O)NCc1ccc(C(F)(F)F)cc1)[C@@H]1O[C@@]2(C)CCC[C@@H]1O2,32,nt,0,-2,0,nt,nt,0,
O=C(Cn1cc(C(F)(F)F)cc(Cl)c1=O)NCc1ccc(Cl)cc1Cl,-2,nt,-11,3,0,6,-8,-15,
c1cnc(Sc2ccc3nnnn3n2)nc1,-10,i,0,3,0,1,-3,-2,
Brc1ccc(NCc2nnc3n2CCCCC3)cc1,nt,nt,-19,-5,5,-2,3,-8,
O=C1NN(c2ccccc2)C(=O)/C1=C\c1ccccc1,-109,i,-11,-4,-1,-5,-3,8,
Cn1c(N)c(C(=O)COC(=O)COc2ccc(Br)cc2)c(=O)n(C)c1=O,nt,nt,-4,-1,3,nt,nt,-17,
Cc1ccc(C(=O)/C=C/C(=O)c2ccc(C)cc2)cc1,-21,i,nt,-7,-14,87*,nt,64,PABP polyA inh retest=52*
Cc1c(C)c2ccc(OCC(=O)NC(Cc3c[nH]c4ccc(O)cc34)C(=O)O)c(C)c2oc1=O (centres undefined),nt,i,1,1,7,11,14,-17,
CC1Cc2ccccc2N1C(=O)CN1CCC(C(N)=O)CC1 (centres undefined),-3,i,nt,5,-1,20,5,-11,
CCOc1cc(/C=N/NS(=O)(=O)c2ccc(OC)cc2)ccc1OCCN1CCOCC1,-37,i,nt,1,5,-8,-5,nt,
CC1(C)CC(=O)C=C(C(=O)NC2CCCc3c2cnn3-c2cc(F)cc(F)c2)O1 (centres undefined),-2,i,6,2,2,-4,-14,0,
CCN(CC)CCn1c(NC(=O)c2ccc(C(F)(F)F)cc2)nc2ccccc21,3,i,nt,8,-3,1,-10,-12,
CC(C)(C)c1cc[n+](C2=C([O-])c3ccccc3C(=O)/C2=N\S(=O)(=O)c2cccs2)cc1,-31,i,14,-16,-9,-2,10,66,
CCOC(=O)C1CCN(C(=O)C2(NC(=O)Nc3cccc(F)c3)CCCCC2)CC1,-4,i,nt,-5,-2,1,-5,-8,
COc1c(C(=O)Nc2nccs2)ccc2ccccc12,-76,i,-7,1,-2,-6,-6,-5,
O=C(N/N=C/c1cc(Cl)cc([N+](=O)[O-])c1O)c1cccc(S(=O)(=O)N2CCOCC2)c1,14,nt,-22,-5,-8,nt,nt,nt,
Cc1ccc2cc(CN(CC3CCCO3)C(=O)C(C)C)c(=O)[nH]c2c1 (centres undefined),-72,i,-1,9,1,4,4,-1,
CCOc1ccc(N2C(=O)CC(N(CCc3ccccc3)C(=O)/C=C/C(=O)O)C2=O)cc1 (centres undefined),8,i,nt,0,3,2,8,5,
Cn1c(=O)c2c(ncn2CC(=O)N2CCN(c3ccc(F)cc3)CC2)n(C)c1=O,-1,i,-13,3,3,-11,-10,15,
CCOC(=O)/C=C1\SCC(=O)N1Cc1nnc(-c2ccccc2Br)o1,nt,i,0,-11,6,8,9,1,
COCCNC(=O)Cn1cnc([N+](=O)[O-])n1,0,i,-11,-3,5,7,2,-8,
COc1ccc(-c2nonc2NC(=O)c2oc3ccccc3c2C)cc1OC,-8,i,-8,-5,-1,1,-13,0,
Brc1ccc(-c2ccc(/C=N/Nc3nc4ccccc4[nH]3)o2)cc1,-152,i,-16,8,1,3,-1,51,

# 3 compounds drawn at random from the list so far, as already listed:
SMILES,Env fusion inh,Rce1 inh,UUG fidelity,MT1-MMP act inh,MT1-MMP act inh RFP,PABP polyA inh,eIF4H inh,CSC inhib,others
O=C1NN(c2ccccc2)C(=O)/C1=C\c1ccccc1,-109,i,-11,-4,-1,-5,-3,8,
COC(=O)[C@@]1(Cc2ccccc2)[C@H]2c3cc(C(=O)N4CCCC4)n(Cc4ccsc4Br)c3C[C@H]2CN1C(=O)c1ccccc1,-7,nt,nt,nt,nt,-2,2,16,
CC(C)CCNC(=O)C(c1ccco1)N(CC1CCCO1)C(=O)Cn1nnc2ccccc21 (centres undefined),nt,i,2,3,1,11,9,5,
